Assay outcomes: PubChem, several laboratories
VCAM-1 up imaging: enhancers of VCAM-1 display on endothelial cells, imaging, high-content imaging, pooled HUVEC, TNFa stimulus (AID 457) | Pooled HUVEC, TNFa-induced VCAM-1 immunofluorescence imaging; hits of this screen are not shown here | calls only | actives 0.2% (n = 10,000);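 active = a top-ranked rise in VCAM-1 staining upheld on image or statistical review; inactive = the rest, including candidates rejected on review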;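 note: compounds tested at 5 µM in the well; cells exposed to compound for 24 hours before fixing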
VCAM-1 down: inhibitors of TNFa-induced VCAM-1 surface display, cell-based, plate reader, pooled HUVEC, TNFa stimulus (AID 454); HUVEC TNFa-induced VCAM-1 surface immunofluorescence, plate reader; numbers were filed only for top-ranked candidate wells; actives 0.2% (n = 10,000); inhibition, % at 5 µM;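 active = compound among top-ranked inhibitors of TNF-induced VCAM-1 adhesion protein staining, with the hit upheld by image or statistical review; inactive = the rest, including hits rejected on review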;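 note: 0% = TNFa with vehicle and 100% = cells without TNFa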
FPRL1 binder: ligands of human FPRL1, also counter-screen for FPR ligands; inhibition, %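 (tested at 6.7 µM)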; AID 441; FPRL1-expressing cells, fluorescent ligand binding inhibition, flow cytometry; P25090; actives 0.3% (n = 24,000);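 note: 0% = buffer alone and 100% = receptor blocker peptide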
Target sequence (P25090 whole entry, looked up): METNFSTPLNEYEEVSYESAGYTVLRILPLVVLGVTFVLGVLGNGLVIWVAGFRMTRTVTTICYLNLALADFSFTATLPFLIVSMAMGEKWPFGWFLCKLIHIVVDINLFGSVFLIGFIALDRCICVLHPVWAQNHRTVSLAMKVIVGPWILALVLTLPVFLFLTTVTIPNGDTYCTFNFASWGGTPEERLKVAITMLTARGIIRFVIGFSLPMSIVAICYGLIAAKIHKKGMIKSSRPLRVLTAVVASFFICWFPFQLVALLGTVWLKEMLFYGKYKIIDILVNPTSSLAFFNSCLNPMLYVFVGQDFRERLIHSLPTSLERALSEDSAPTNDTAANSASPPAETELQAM
VCAM-1 imaging: inhibitors of TNFa-induced VCAM-1 surface display, imaging, high-content imaging, pooled HUVEC, TNFa stimulus (AID 456); HUVEC TNFa-induced VCAM-1 surface expression, immunofluorescence imaging; numbers were filed only for top-ranked candidate wells; actives 0.2% (n = 10,000); inhibition, % at 5 µM; hits with a dose series show IC50 in µM;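 active = top tenth filtered wells with inhibition above zero that passed visual or statistical confirmation; inactive = the rest, including hits rejected on review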;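 note: 0% = stimulated vehicle wells and 100% = unstimulated cells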
FPR binder: binds the human formylpeptide receptor FPR | inhibition, %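 (tested at 6.7 µM)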 | AID 440 | FPR-expressing cells, fluorescent ligand binding, flow cytometry | actives 0.74% (n = 24,000);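 note: 0% = buffer wells and 100% = receptor blocker peptide wells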
Target sequence (P21462 whole entry, looked up): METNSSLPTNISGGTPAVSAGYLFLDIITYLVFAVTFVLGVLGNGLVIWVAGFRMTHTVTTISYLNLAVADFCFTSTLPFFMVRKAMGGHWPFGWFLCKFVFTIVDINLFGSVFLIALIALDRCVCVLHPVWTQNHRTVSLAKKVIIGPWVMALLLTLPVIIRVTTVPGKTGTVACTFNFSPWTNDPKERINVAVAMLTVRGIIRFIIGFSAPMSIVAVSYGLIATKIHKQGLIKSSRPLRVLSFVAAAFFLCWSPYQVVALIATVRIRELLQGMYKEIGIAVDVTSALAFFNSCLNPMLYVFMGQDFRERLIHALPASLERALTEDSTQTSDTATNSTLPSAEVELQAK
An asterisk follows results filed as active; i = inactive; x = not tested or not shown.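 Rule for the calls, unless noted: active = mean above 30%; inconclusive = self-fluorescent; inactive = the rest.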

Order of values – FPRL1 binder	FPR binder	VCAM-1 down	VCAM-1 imaging	VCAM-1 up imaging
CCOC(=O)c1sc(NC(=O)CSc2n[nH]c(-c3ccccc3)n2)c(C#N)c1C
  -7	12	i	i	i
CCOC(=O)CC(=O)CSc1nc(-c2cccnc2)ccc1C#N
  0	-15	i	i	i
Cc1nn(C)c(C)c1S(=O)(=O)Nc1ccc2c(c1)OCO2
  6	7	x	x	x
Cn1c(C(=O)N2CCCC(C(=O)NCCCSC3CCCCC3)C2)cc2sccc21 (stereo unspecified)
  -4	9	x	x	x
CCn1c(NC(=O)c2cccc(Cn3cc(Cl)cn3)c2)nc2ccccc21
  3	5	i	i	i
Cc1cc2c(=O)n(CC(=O)N3CCN(c4ccc(F)cc4)CC3)cnc2s1
  5	-2	x	x	x
COc1ccc(S(=O)(=O)Cc2ccc(C(=O)N3CCN(c4ccccn4)CC3)o2)cc1
  0	4	x	x	x
Cc1ccc(CNC(=O)CN2C(=O)COc3ccc(C)cc32)cc1
  -1	2	x	x	x
COc1ccc(/C(O)=C2/C(=O)C(=O)N(Cc3cccnc3)C2c2ccncc2)cc1F (stereo unspecified)
  -1	-3	i	i	i
Cc1c(Cl)cccc1NC(=O)c1cc(C2CC2)on1
  -4	-2	x	x	x
Cc1ccccc1-c1nc(CS(=O)(=O)CC(=O)Nc2cc(F)ccc2F)c(C)o1
  1	15	x	x	x
Cc1nn(S(=O)(=O)N2CCCCC2)c(C)c1Br
  -6	-2	i	i	i
CC#CCCC(=O)N1C=Cc2ccccc2C1C#N (stereo unspecified)
  2	-2	x	x	x
O=C(C1=C(O)C(=O)N(Cc2ccco2)C1c1cccnc1)c1cc2ccccc2o1 (stereo unspecified)
  -3	6	x	x	x
CN(CC(=O)Nc1ccc2c(c1)OCCO2)S(=O)(=O)c1ccc(Br)s1
  -1	-2	i	i	i
Cc1csc2nc(CNC(=O)c3cccc(C(F)(F)F)c3)cn12
  5	9	x	x	x
CCN(c1ccccc1)c1cc(C)nc2ncnn12
  0	2	x	x	x
COCCN1Cc2cccc(C(=O)Nc3cccc(C)c3C)c2C1=O
  -11	-4	x	x	x
CC(C)NC(=O)C1CCN(C(=O)c2cc3sccc3n2Cc2ccc(F)cc2)CC1
  -1	1	x	x	x
CCN(CC)CCCC1(CN)OCCc2ccccc21 (stereo unspecified)
  9	-2	i	i	i
CC(=O)c1ccc(N2CCN(C(=O)C3(S(=O)(=O)c4ccc(Cl)cc4)CC3)CC2)cc1
  7	4	x	x	x
O=C1NCC(COCc2ccccc2)O1 (stereo unspecified)
  0	-3	i	i	i
CCN(CCNS(=O)(=O)c1ccc2c(c1)oc(=O)n2C)c1ccccc1
  -23	-15	x	x	x
COc1ccc2nc(N3CCCC(C(=O)NCCCN4CCN(C)CC4)C3)sc2c1 (stereo unspecified)
  1	-1	x	x	x
CC(=O)Nc1ccc2nc(C3CCCCC3)[nH]c2c1
  1	-3	x	x	x
CCn1cc(C(=O)NCc2ccco2)c(=O)c2cc(S(=O)(=O)N3CCc4ccccc4C3)ccc21
  -3	0	x	x	x
COc1ccc(OC)c(C(C)NC=O)c1 (stereo unspecified)
  -9	-5	i	i	i
Cc1nnc(SCC(=O)Nc2ccc(Oc3ccccc3)cc2)n1N
  -2	4	x	x	x
O=C(Nc1ccccc1C(F)(F)F)c1cc(-c2ccccc2O)on1
  -9	-9	x	x	x
COc1cc(C2NC(=O)NC(O)(C(F)(F)F)C2C(C)=O)cc(OC)c1OC (stereo unspecified)
  1	0	x	x	x

Two records drawn at random from those above:
Order of values – FPRL1 binder	FPR binder	VCAM-1 down	VCAM-1 imaging	VCAM-1 up imaging
Cc1csc2nc(CNC(=O)c3cccc(C(F)(F)F)c3)cn12
  5	9	x	x	x
COc1cc(C2NC(=O)NC(O)(C(F)(F)F)C2C(C)=O)cc(OC)c1OC (stereo unspecified)
  1	0	x	x	x

Back to the main list; the 2 compounds before the break are reprinted first.
Order of values – FPRL1 binder	FPR binder	VCAM-1 down	VCAM-1 imaging	VCAM-1 up imaging
O=C(Nc1ccccc1C(F)(F)F)c1cc(-c2ccccc2O)on1
  -9	-9	x	x	x
COc1cc(C2NC(=O)NC(O)(C(F)(F)F)C2C(C)=O)cc(OC)c1OC (stereo unspecified)
  1	0	x	x	x
COC(=O)c1cc(=O)n(Cc2ccc3c(c2)OCO3)c(=Nc2ccccc2)s1
  -3	8	96*	96%	i
CCOC(=O)CSc1nnc(Cn2nnc(-c3ccccc3)n2)n1CC
  8	1	i	i	i
Cn1nc(C(=O)N2CCOCC2)c2ccccc2c1=O
  -3	0	i	i	i
Cc1nc2ncnn2c(N2CCC(C(=O)NC3CCCC3)CC2)c1Cc1ccccc1
  9	1	i	i	i
CN(C)c1ccc(C2N(c3cccc(Cl)c3)C(=O)C3CCCN32)cc1 (stereo unspecified)
  -1	-2	x	x	x
CCOC(=O)NC(NC(=O)OCC)C(=O)c1ccccc1
  3	0	x	x	x
CCS(=O)(=O)N1CCCC(C(=O)NCc2ccccc2Cl)C1 (stereo unspecified)
  -5	-1	i	i	i
Cc1c(NS(=O)(=O)c2ccc3c(c2)n(C)c(=O)n3C)c(=O)n(-c2ccccc2)n1C
  17	4	i	i	i
Nc1ccc(S(=O)(=O)c2cccc(N)c2)cc1
  0	-3	i	i	i
COC(=O)c1[nH]c2cccc(C)c2c1NC(=O)CN1CCCc2ccccc21
  4	0	i	i	i
Cc1c(Br)c(=O)[nH]c(=O)n1COCc1ccccc1
  -4	-6	x	x	x
COc1ccc2nc3oc(C(=O)N4CCC(C(N)=O)CC4)cc3cc2c1
  11	2	x	x	x
CCOc1ccc(NC(=O)CN2C(=O)COc3ccc(Cl)cc32)cc1
  -1	-2	x	x	x
CCOC(=O)c1cccc(NC(=O)CSc2nnc(-c3cccnc3)n2CC)c1
  2	2	i	i	i
COc1ccc(-c2cc(C(=O)N3CC4(C)CC3CC(C)(C)C4)no2)cc1 (stereo unspecified)
  -12	-7	x	x	x
COC(=O)CN1C(=O)CSc2ncccc21
  9	11	x	x	x
COc1ccccc1-c1cc(N)n(S(=O)(=O)c2ccc(F)c(C)c2)n1
  2	1	x	x	x
CCOC(=O)N1CCN(S(=O)(=O)c2ccc(OCC)c(C)c2)CC1
  -1	1	i	i	i
Cn1c(=O)cc(OCCCC(=O)N2CCN(Cc3ccc4c(c3)OCO4)CC2)c2ccccc21
  1	0	x	x	x
Cc1ccc(-n2nnnc2SCC(=O)c2cc(C)n(-c3cc(C)on3)c2C)cc1
  -6	2	i	i	i
CC(C)CNc1nc(Oc2ccc(=O)n(C)n2)nc(N2CCOCC2)n1
  -8	-6	x	x	x
O=S(=O)(c1ccccc1)N(Cc1nc(-c2ccccc2)no1)C1CCCCC1
  -6	-5	i	i	i
O=C1N[C@@H](Cc2cnc[nH]2)C(=O)N2CCC[C@@H]12
  -6	-4	i	i	i
Cc1ccc(-c2csc(N3CCC(C(N)=O)(N4CCCCC4)CC3)n2)cc1
  11	-8	x	x	x
CCOC(=O)c1c(NC(=O)CSc2nnc(CNC(=O)c3ccco3)n2C)sc2c1CCC2
  6	5	x	x	x
CCn1cc(C(=O)N2CCN(C3CCCCC3)CC2)c2cc(OC)c(OC)cc2c1=O
  2	-14	x	x	x
COc1cccc(-c2cc(C(=O)N3CCCc4ccccc43)no2)c1
  -5	2	i	i	i
CCCCN1CC(C(=O)NC2CCCCC2)CC1=O (stereo unspecified)
  4	-4	x	x	x
COc1ccc(OC)c2[nH]c(=O)c(CCNC(=O)COc3ccccc3)cc12
  -2	1	x	x	x
COc1ccccc1-c1cc(C(F)(F)F)nc(S(=O)(=O)CCCC(=O)Nc2cc(C)on2)n1
  -9	5	x	x	x

A second format for part of the listing above.
SMILES	FPRL1 binder	FPR binder	VCAM-1 down	VCAM-1 imaging	VCAM-1 up imaging
COc1ccc(OC)c2[nH]c(=O)c(CCNC(=O)COc3ccccc3)cc12	-2	1	x	x	x
COc1ccccc1-c1cc(C(F)(F)F)nc(S(=O)(=O)CCCC(=O)Nc2cc(C)on2)n1	-9	5	x	x	x

More structures.
Order of values – FPRL1 binder	FPR binder	VCAM-1 down	VCAM-1 imaging	VCAM-1 up imaging
CCOC(=O)CNC(=O)C(NC(=O)C1CCC(C)CC1)C(C)CC (stereo unspecified)
  -6	2	x	x	x
COC(=O)c1ccc(CS(=O)(=O)c2ccccc2C)o1
  -7	-1	x	x	x
COCC(=O)Nc1sc2c(c1C(=O)OC)C(C(=O)OC)CC2 (stereo unspecified)
  6	14	i	i	i
Cc1cccc(N(CC(=O)N2CCCC2)S(=O)(=O)c2ccccc2)c1C
  3	-9	i	i	i
O=C(CSc1nnnn1C1CCCC1)NCc1ccc2c(c1)OCO2
  8	0	i	i	i
CCOc1ccc(Oc2nc(NCC(C)C)nc(OC)n2)nn1
  -1	2	x	x	x
CCOC(=O)c1sc2nc(NC(=O)C(C)(C)C)sc2c1C
  17	12	i	i	i
Cc1cc(NC(=O)c2noc3c2CCCCC3)nn1Cc1ccc(Cl)cc1
  1	2	x	x	x
CCC(C)(C(=O)NC1CCCCC1)N(CC1CCCO1)C(=O)c1ccccn1 (stereo unspecified)
  -7	0	i	i	i
Cc1ccc(C)c(-c2nc3ccc(N)cc3[nH]2)c1
  -3	5	i	i	i
COc1cc(NC(=O)c2cc(CC(C)C)on2)c(OC)cc1Cl
  -8	-10	i	i	i
CCOc1ccccc1NS(=O)(=O)c1ccc(OC)c(OC)c1
  1	8	x	x	x
COc1cccc2cc(C(=O)C3=C(O)C(=O)N(Cc4ccco4)C3c3cccnc3)oc12 (stereo unspecified)
  30	34*	x	x	x
CCOC(=O)NCCc1c(C)nc2c(c(C)nn2C(C)(C)C)c1C
  -4	-5	x	x	x
COC(=O)c1cc2sccc2n1CC(=O)Nc1cc(OC)cc(OC)c1
  -5	-7	x	x	x
CCOCCCNC(=O)C1CCC(=O)N1CCc1ccccc1 (stereo unspecified)
  -5	-3	i	i	i
CCNc1nc(OC)nc(Oc2ccc(=O)n(-c3ccccc3)n2)n1
  -7	5	i	i	i
CC1(C)CC(=O)C2=C(C1)N(Cc1ccco1)C(=O)C2(NC(=O)C1CCCCC1)C(F)(F)F (stereo unspecified)
  -6	6	i	i	i
Cc1cc(NC(=O)Cn2cnc3c2c(=O)n(C)c(=O)n3C)n(-c2ccccc2)n1
  9	-6	i	i	i
O=C(NCCCN1CCN(c2ccccc2F)CC1)C1CCC(=O)N1C1CCCCC1 (stereo unspecified)
  10	2	x	x	x
CCn1cc(C(=O)NCc2ccc3c(c2)OCO3)c2cc(OC)c(OC)cc2c1=O
  -5	-1	x	x	x
CCOCCCNC(=O)c1cn(C)c(=O)c2cc(OC)c(OC)cc12
  2	2	x	x	x
COc1ccc2c3c(c(=O)oc2c1OCC(N)=O)CCCC3
  -3	0	i	i	i
Cc1cccc(N2CCN(C(=O)C3CCCN(S(=O)(=O)c4cccc5cccnc45)C3)CC2)c1C (stereo unspecified)
  5	3	x	x	x
CCCS(=O)(=O)N1CCC(C(=O)NCC2CCCO2)CC1 (stereo unspecified)
  2	10	x	x	x
O=C1CCC(c2ccccc2)N1C(=O)c1cccnc1 (stereo unspecified)
  9	3	i	i	i
O=C(Nc1nccs1)C1CCCN(S(=O)(=O)c2cccnc2)C1 (stereo unspecified)
  0	-9	x	x	x
COc1ccc2nc(Nc3nc(C)c(C(C)=O)s3)sc2c1
  59*	6	x	x	x
CC(C)CN(CC(C)C)C(=O)CS(=O)(=O)Cc1ccccc1
  -3	63*	i	i	i
CCCNC(=O)NC1C(NC(=O)NCCC)N(C)C(=O)N1C (stereo unspecified)
  -1	-4	i	i	i
CC(C(=O)Nc1ccccn1)N1C(=O)C2C3C=CC(C3)C2C1=O (stereo unspecified)
  -2	0	x	x	x
CCCCCn1c(CNC(=O)COC)nc2ccccc21
  -2	13	x	x	x
CCN1C(=O)N(CC)C2C1N(C(C)=O)C(=O)N2C(C)=O (stereo unspecified)
  -2	8	i	i	i
COc1cc(NC(=O)c2onc(C)c2Cl)c(OC)cc1Cl
  -3	-3	x	x	x

3 entries from above, ordered by heavy-atom count, largest number first:
Order of values – FPRL1 binder	FPR binder	VCAM-1 down	VCAM-1 imaging	VCAM-1 up imaging
CC(C(=O)Nc1ccccn1)N1C(=O)C2C3C=CC(C3)C2C1=O (stereo unspecified)
  -2	0	x	x	x
CCCNC(=O)NC1C(NC(=O)NCCC)N(C)C(=O)N1C (stereo unspecified)
  -1	-4	i	i	i
CCCCCn1c(CNC(=O)COC)nc2ccccc21
  -2	13	x	x	x

Only part of the results is shown (hit frequency here may not be typical).
